# VACV Venus inh: qHTS for Stage-Specific Inhibitors of Vaccinia Orthopoxvirus: Venus Reporter Primary qHTS. Vaccinia virus Venus reporter expression, fluorescence. Potency, µM (top dose mostly 36.5 µM), for the others: at the top dose activity change, negative = inhibition, most hits filed as inhibitors. 330,000 tested, 0.46% active. AID 720580, 2013; active means well fitted inhibition curve with a large enough effect; inconclusive means small, poorly fitted or top-dose-only effect; inactive means no such curve, though single readings can be large or run the other way; tested in A549 cells; also: nearly all actives have a fitted effect of over 30% in size; inactives centre near -10
# VACV mCherry inh: qHTS for Stage-Specific Inhibitors of Vaccinia Orthopoxvirus: mCherry Reporter Primary qHTS. 310,000 tested, 0.63% active. AID 720579, 2013. Potency, µM (titrated, usually from 36.5 µM), inactives show at the top dose activity change, negative = inhibition, hits mostly inhibitors. Vaccinia virus mCherry reporter infection, fluorescence; about a quarter of the inactives have no number; active = well fitted inhibition curve with a large enough effect; inconclusive = small, poorly fitted or top-dose-only effect; inactive = no such curve, though single readings can be large or run the other way; tested in A549 cells; also: nearly all actives have a fitted effect of over 35% in size; inactives centre near -10
# Numbers without * were called inactive; i = inactive; ? = inconclusive; · = no result given; [ ] = another dose, or the depositor's remark. % is scaled to controls: 0 for no effect and ±100 for the full control effect; potency is read from the fitted curve at half-maximal effect.
compound	VACV Venus inh	VACV mCherry inh
Cc1ccc(Cc2nc3ccccc3nc2SCC(=O)N2CCCCC2)cc1	-1%	-11%
Cc1cc(C)n2nc3nc(N4CCCC4)nc(-c4ccccc4)c3c2n1	-10%	·
COc1ccc(NS(=O)(=O)c2ccc(NC(C)=O)cc2)nn1	-8%	-22%
COc1cc(Cn2cnnn2)ccc1O	-16%	i
CCOCCCNC(=S)Nc1cc(OCC)c(NC(=O)c2ccco2)cc1OCC	-15%	-3%
CC(/C=C1\SC(=S)N(C(C(=O)O)C(C)C)C1=O)=C\c1ccccc1 (stereo not drawn)	11%	i
N=c1ccccn1Cc1ccccc1	-4%	i
CCN(CC(=O)Nc1ccc(NC(C)=O)cc1)C(=O)c1cc(C)on1	-6%	-12%
CN(CCc1ccccc1)C(=O)c1ccc(NC(=O)Cc2ccc(NC(=O)C3CCN(S(=O)(=O)c4cccc([N+](=O)[O-])c4)CC3)cc2)cc1	-12%	?
O=C(NCCCN1CCOCC1)c1cc2ccccc2o1	-9%	-17%
CCCOc1ccc(CNC(=O)CCCN2C(=O)CSc3c2c(C)nn3-c2ccccc2)cc1	-8%	-4%
Cc1ccc(NC(=O)CN(C)S(=O)(=O)c2cccc3nsnc23)cc1C	-19%	-15%
N#Cc1c(Cl)cccc1Cl	-15%	-11%
COc1ccc(C2CC(=O)Oc3c(C(CCN4CCOCC4)c4cc(OC)c(OC)c(OC)c4)c(OC)cc(OC)c32)cc1 (stereo not drawn)	-9%	i
COC(=O)c1ccccc1NC(=O)c1ccccc1OC	-15%	·
CCN1CCN(c2ncc3c(n2)CC(c2cc(OC)c(OC)c(OC)c2)CC3=O)CC1 (stereo not drawn)	?	?
CCOC(=O)Cn1c(C)c(C#N)c2ccccc21	-3%	-6%
CCn1nc(C(=O)Nc2ccc3nc(C)sc3c2)c2ccccc2c1=O	-19%	0%
CCOC(=O)C1(C)CCCN(C(=O)c2cccnc2)C1 (stereo not drawn)	-1%	i
COc1ccc(CNC(=O)CSc2nnc3c(n2)[nH]c2ccc(OC)cc23)cc1	-1%	9%
Cc1ccc(NC(=S)/N=C(\N)Nc2nc(C)c3cc(C)c(C)cc3n2)cc1C	-4%	-28%
CCCn1cnc2cc(NCc3ccc(Br)cc3)ccc21	-12%	-15%
O=S(=O)(c1ccc(SCc2ccc(Br)cc2)nc1)N1CCOCC1	-2%	-2%
CCOc1ccc(NC(=O)Cn2c(=O)oc3cc(S(=O)(=O)NC4CCCC4)ccc32)cc1	-1%	-1%
CCOc1cccc2c1OC1(C)CC2NC(=O)N1c1cccc(C(=O)N2CCN(c3ccccn3)CC2)c1 (stereo not drawn)	-8%	-12%
O=C(O)COc1ccc(/C=N/Nc2nc(Nc3ccccc3)nc(N3CCCCC3)n2)cc1	3%	?
c1ccc(CCNc2nc3ccccc3n3nnnc23)cc1	7%	-14%
Cc1c(-c2ccc(Cl)cc2)oc(=O)c2c(N)n(-c3ccccc3)nc12	?	-24%
O=C1NCCCC1C(=O)N1CCN(C(c2ccccc2)c2ccccc2)CC1 (stereo not drawn)	-11%	-20%
O=C(Nc1ccc(Cl)cn1)Nc1ccccc1Cl	-3%	i
Cc1ccccc1NC(=O)C1CCN(C(=O)c2ccc(F)cc2)CC1	8%	0%
CCCn1c(CCC(=O)O)ccc1-c1ccc(F)cc1	-9%	-5%
O=C(NCCN1CCCCC1)Nc1ccc(Br)cc1	-10%	-14%
CCC(C)NC(=O)[C@@H]1CSC2c3ccccc3C(=O)N21 (stereo partly drawn)	-6%	-15%
O=C(NC1CCCCCCC1)c1cccc(S(=O)(=O)N2CCOCC2)c1	-12%	i
O=C(O)c1cccnc1NC1CCCC1	3%	0%
Cc1ccccc1Nc1sc(C(=O)c2ccccc2)c(N)c1C(=O)NCc1ccc(Cl)cc1	?	?
COc1ccc(C(=O)Nc2nc(C)cc(C)n2)cc1[N+](=O)[O-]	-11%	-21%
CN(CCOc1ccccc1)Cc1nc2cc(Cl)ccc2c(=O)[nH]1	-9%	i
Cc1cc(NC(=O)c2cccc(Br)c2)no1	-8%[7.34 µM]	i[7.34 µM]
CCCCC[C@H](C)N1C[C@H](COCc2ccccc2)Oc2cc(N3CCC[C@H]3CO)ccc2S1(=O)=O	-7%	i
CCNNC(=O)C(O)(Cc1ccccc1)Cc1ccccc1	6%	-15%
CC1Cc2cc(C3(O)C(=O)c4ccccc4C3=O)ccc2N1 (stereo not drawn)	-9%	i
Cn1c(SCC(=O)N2CCOCC2)nnc1-c1ccc2ncccc2c1	-18%	-3%
COC(=O)c1[nH]c2ccccc2c1NC(=O)CN1CCN(C/C=C/c2ccccc2)CC1	?	-26%
CCN1CCCC1CNC(=O)c1ccc(N2CCCC2=O)cc1 (stereo not drawn)	20%	4%
CCc1cc[n+](CC(=O)c2ccc(F)cc2)cc1C(=O)O	-10%	-16%
CCOC(=O)c1cc(S(=O)(=O)Nc2c(C)cc(C)cc2C)[nH]n1	-11%	-12%
C[C@H](CO)N1C[C@H](C)[C@@H](CN(C)C(=O)Nc2ccccc2)Oc2ccc(NS(=O)(=O)c3ccccc3)cc2C1=O	-17%	-5%
Cc1ccc(NC(=O)c2c(C)nc3ccccn23)cc1C	-14%	i
CC(C)C(NC(=O)c1ccc(C(C)(C)C)cc1)C(=O)NC1=NCCS1 (stereo not drawn)	-20%	-1%
COc1ccc(OC)c(S(=O)(=O)N2CCC(C(=O)NCc3ccccc3OC)CC2)c1	-23%	·
O=C(COC(=O)CNC(=O)C1CCCCC1)NC1CC1	8%	25%
O=C(CCc1ccccc1)NC(NC(=S)Nc1cccc(Cl)c1)C(Cl)(Cl)Cl (stereo not drawn)	-16%	-6%
O=C(Cc1ccc(Br)cc1)c1ccc(O)cc1O	-29%	·
O=C1Nc2ccc([N+](=O)[O-])cc2OC1CCN1CCN(Cc2ccc3c(c2)OCO3)CC1 (stereo not drawn)	-18%	-15%
CCC(Cn1nnc2ccccc2c1=O)NC(=O)Nc1cccc(Cl)c1 (stereo not drawn)	-3%	3%
COc1cc(NC(=O)CN2CCC(Cc3ccccc3)CC2)c(C)cc1[N+](=O)[O-]	-10%	i
CCOC(=O)c1ccc(NC(=O)Cn2nc3c4ccccc4n(Cc4cccc(F)c4)cc-3c2=O)cc1	?	?
O=C(O)CC(NC(=O)c1cccc([N+](=O)[O-])c1)c1ccc2c(c1)OCO2 (stereo not drawn)	-9%	i

# (listing goes on)
compound	VACV Venus inh	VACV mCherry inh
COc1ccccc1-n1c(=O)c2c3c(sc2n2c(=S)[nH]nc12)CCC3	-4%	-3%
O=C(Nc1ccccc1)NC1(C(=O)N2CCC(O)CC2)CCCCC1	-9%	-7%
COc1ccc(CN(C)CC(=O)Nc2ccc(Cl)cc2F)c(OC)c1	-9%	-6%
Cc1ccc(-c2nnc(SCC(=O)N(CC(C)C)c3c(N)n(Cc4ccccc4)c(=O)[nH]c3=O)n2N)cc1	-15%	-2%
CCN(CC)S(=O)(=O)c1ccc2oc(C(=O)NCc3ccc(C)cc3)c(C)c2c1	-23%	-14%
COc1cc(C(=O)CSc2nccn2C)cc(OC)c1OC	-13%	i
O=c1[nH]ncc(NCc2ccc(Cl)cc2)c1Cl	-18%	-22%
OC(c1ccc2c(c1)OCO2)c1ncc(-c2cccc(C(F)(F)F)c2)[nH]1 (stereo not drawn)	-15%	12%
O=C(c1cnc(Cl)c(Cl)c1)N1CCN(S(=O)(=O)c2ccc(F)cc2)CC1	-16%	i
O=[N+]([O-])c1ccc(/C=C/c2ccnc3ccccc23)c([N+](=O)[O-])c1	?	?
O=C1N(CN2CCN(Cc3ccccc3)CC2)c2ccccc2C12OCCCO2	-17%	i
C#Cc1ccc([C@H]2C=C(C(=O)NCc3ccccc3)O[C@@H](OCc3ccc(CO)cc3)C2)cc1	-16%	-24%
Cc1ccccc1-c1ccc2n1Cc1cnnn1-c1ccccc1-2	-24%	-7%
CCOC(=O)CC(=O)CSc1nc(C)nc2c1oc1ccccc12	-5%	·
CCCCNC1CCS(=O)(=O)C1 (stereo not drawn)	-4%	-2%
COc1cccc(-c2cc(C(=O)NCCc3ccccc3)no2)c1	-12%	i
CCN(CC)C(=O)c1sc2c(c1C)c(=O)n(-c1ccc(Cl)c(Cl)c1)c(=O)n2CC(=O)Nc1cccc(OC)c1	-16%	-18%
CCN(CC)S(=O)(=O)c1ccc(N2CCN(C)CC2)c(NC(=O)c2cc(=O)c3ccccc3o2)c1	19%	7%
Cc1cc(C)cc(NC(=O)NCc2noc3ccccc23)c1	-16%	-5%
O=C(Oc1ccc(-n2cnnn2)cc1)c1ccccc1	-2%	-6%
COc1cccc2sc(N3CCN(C(=O)c4cccs4)CC3)nc12	-27%	-15%
CC(C)(C)CC(C)(C)N=C1Nc2ccc(Cl)cc2N[C@]12C[C@H]1CCCC(=O)N3CC[C@@H](C2)[C@@H]13	?	-16%
O=C(NCc1ccco1)c1cc2ccccc2c(=O)o1	-9%	i[1.46 µM]
COc1ccc(/C(CC2OC(=O)c3ccccc32)=N\NC(N)=O)cc1 (stereo not drawn)	-3%	i
O=C(Cn1nnc(-c2ccccc2Cl)n1)N1CCCCC1	-3%	i
C=CCOC(=O)C1=C(C)OC(N)=C(C#N)C1c1ccccc1F (stereo not drawn)	?	·
COc1ccc(OC)c(NS(=O)(=O)c2ccc(NC(=O)c3ccc(NS(C)(=O)=O)cc3)cc2)c1	-13%	-8%
CNC(=S)Nc1ccccc1-c1ccccc1	3%	11%
O=C1C2C3CC(C(Br)C3Br)C2C(=O)N1CC1CCCO1 (stereo not drawn)	-11%	i
CNC(=O)c1cc2c(=O)n3cc(C)ccc3nc2n(C(C)C)c1=N	-1%	-7%
Cc1ccc(NC(=O)c2c(C)oc3ccc(O)c(CN4CCCC4)c23)c(C)c1	0%	-11%
NC(=O)c1ccc(C(=O)N/N=C/c2cccc(Oc3ccccc3)c2)cc1	-6%	i
CCOC(=O)c1ccn(-c2nc(-c3ccco3)cc(C(F)(F)F)n2)n1	0%	-15%
O=C(c1ccccc1)N1CCC(c2nc(-c3ccc(S(=O)(=O)N4CCOCC4)cc3)no2)CC1	?	·
O=C(c1cc2nc(-c3cccs3)cc(C(F)(F)F)n2n1)N1CCCc2ccccc21	0%	-11%
COc1ccc(S[C@@H]2C[C@@H](C(=O)Nc3ccc4nccnc4c3)N(C3Cc4ccccc4C3)C2)cc1	-1%	-12%

# Profiles from above.
# Shown for `O=C(CCc1ccccc1)NC(NC(=S)Nc1cccc(Cl)c1)C(Cl)(Cl)Cl` (stereo not drawn) : VACV Venus inh: -16%; VACV mCherry inh: -6%
# Shown for `COc1ccc(NS(=O)(=O)c2ccc(NC(C)=O)cc2)nn1` : VACV Venus inh: -8%; VACV mCherry inh: -22%

# New compounds follow
compound	VACV Venus inh	VACV mCherry inh
Cc1ccc(S(=O)(=O)C2CCCCC2=O)cc1 (stereo not drawn)	-3%	i
O=C(c1ccccc1Br)N1CCC(c2nc3ccccc3s2)CC1	-22%	-12%
O=C(O)c1cccc(-n2nc(-c3ccc(Cl)c([N+](=O)[O-])c3)c3ccccc3c2=O)c1	-3%	-13%
O=C(Cc1ccccc1[N+](=O)[O-])N1CCN(S(=O)(=O)c2ccccc2)CC1	-2%	-11%
CCc1ccc(S(=O)(=O)c2c(C(=O)c3ccccc3)cnc3ccc(CC)cc23)cc1	-10%	-12%
CN(CC(=O)Nc1ccc(F)c(F)c1F)C(=O)C1CCN(C(=O)Nc2ccccc2)CC1	-18%	i
COc1ccc(NC(=O)c2cccc(S(=O)(=O)N(C)c3ccccc3)c2)cn1	-14%	-25%
COc1cccc(COC(=O)CSCC(=O)Nc2cccc(C)c2)c1OC	-13%	i
O=C(Nc1ccncc1)c1cc2ccccc2o1	-18%	·
c1cc(C2OCCO2)cs1	-11%	i
C[C@@H]1CN([C@H](C)CO)C(=O)CCCn2cc(nn2)CO[C@H]1CN(C)S(=O)(=O)c1ccc(Oc2ccccc2)cc1	-18%	-11%
COc1ccc(N2CCN(C(=O)c3ccc4c(=O)n5c(nc4c3)CCCCC5)CC2)cc1	-18%	2%
CC(=O)c1ccccc1NC(=O)c1ccc(N2CCCC2=O)cc1	-19%	-1%
Cc1cccc(C(=O)NC2CC3CCC(C2)N3C)c1 (stereo not drawn)	-7%	-13%
O=C(NCC1CCN(c2ccc(S(=O)(=O)N3CCOCC3)cc2)CC1)c1ccc(Cl)cc1	?	·
CCc1nnc(NC(=O)C2CSC3(C)CCC(=O)N23)s1 (stereo not drawn)	-10%	-7%
O=C(NNC(=O)c1oc2ccccc2c1-n1cccc1)c1ccco1	-16%	i
O=C(CS(=O)(=O)c1cccc2nsnc12)NCc1ccccc1	7%	-3%
Cc1ccc(CNC(=O)C(CC(C)C)NS(=O)(=O)c2ccc3c(c2)oc(=O)n3C)cc1 (stereo not drawn)	-2%	-11%
Cc1onc(-c2ccccc2Cl)c1C(=O)NC(=S)NCCc1ccccc1	-4%	-8%
CC(=O)Nc1ccc(OCc2nnc(-c3ccc(Cl)cc3)o2)cc1	2%	-5%
C/C(=N\Nc1cc(-c2ccccc2)nc(-c2ccc(Br)cc2)n1)c1cccc(N)c1	-25%	-15%

# Screening results: PubChem, National Center for Advancing Translational Sciences (NCATS)
